Assay outcomes as filed in PubChem.
Calb FLC = affects C. albicans growth with fluconazole | AID 1979 | C. albicans CaCi-2 (fluconazole-resistant clinical isolate) + fluconazole, Alamar Blue growth, 48 h | actives 0.57% (n = 300,000) | growth inhibition, % (test concentration not listed);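 active means most replicates above 75%; inconclusive means exactly half above 75%; inactive means most below 75%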;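 further: all wells also contain fluconazole at 8 µg/ml as a sub-toxic cotreatment; 0% = median of DMSO wells and 100% = median of geldanamycin control wells; wells of about 8 µL received 7.5 nL stock; the first replicate is given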
Vif A3G = inhibitors of Vif binding to APOBEC3G peptide, primary screen, biochemical, TR-FRET, GST-Vif 1-94, biotin-A3G peptide, dose response retest (AID 1117319). TR-FRET GST-Vif / biotin-A3G peptide binding; higher % means a stronger effect; test concentration not given here; strong numbers were not always called active. one-dose inhibition, %; IC50 in µM for titrated hits. actives 0.57% (n = 260,000);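 active means above the screen mean plus three standard deviations and confirmed in dose response; inconclusive means results disagree or hit not tested in dose response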;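 further: Vif residues 1-94 fused to GST binding biotinylated APOBEC3G peptide 110-148; 0% = full assay without inhibitor and 100% = GST in place of GST-Vif; retest series ran down from 100 µM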
RanGTP-Imp inh = inhibitors of RanGTP-importin-beta interaction, primary screen, biochemical, FRET, CFP-Ran, YFP-importin-beta, homogeneous. cell-free CFP-Ran/YFP-importin-beta FRET ratio. inhibition, % (test concentration not listed). actives 1.1% (n = 300,000);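 active means most replicates above 15%; inconclusive means exactly half above 15%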;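 further: 0% = DMSO wells and 100% = Ran loaded with GDP instead of GTP; wells of about 40 µL received 100 nL stock; the first replicate is given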
Beta2AR agonist = agonists of human beta-2 adrenergic receptor inducing internalization; Am2.2-beta2AR cells, FAP receptor internalization, flow cytometry; reference of the scale not given here; P07550; actives 0.43% (n = 340,000); response, % (test concentration not listed);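 active means response above a set limit, near 3 SD of response in nonfluorescent compounds, cut at about 42% in these data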;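 further: stock transfer was 100 nL into about 11 µL; a reference agonist was the positive control; negative values mostly stem from fluorescent compounds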
Target sequence (P07550 whole entry, looked up): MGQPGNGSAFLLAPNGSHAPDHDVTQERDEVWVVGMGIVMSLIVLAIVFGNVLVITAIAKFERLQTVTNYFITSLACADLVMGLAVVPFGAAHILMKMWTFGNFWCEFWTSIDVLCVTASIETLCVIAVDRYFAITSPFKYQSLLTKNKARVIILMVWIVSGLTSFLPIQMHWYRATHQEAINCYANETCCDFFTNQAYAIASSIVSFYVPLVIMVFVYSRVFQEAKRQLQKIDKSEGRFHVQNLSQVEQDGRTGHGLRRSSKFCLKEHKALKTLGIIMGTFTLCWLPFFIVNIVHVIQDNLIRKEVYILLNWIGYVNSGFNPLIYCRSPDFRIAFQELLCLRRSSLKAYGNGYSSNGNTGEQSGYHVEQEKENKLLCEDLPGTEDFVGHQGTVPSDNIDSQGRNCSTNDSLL
HNF4A DNA FP = change in binding of human HNF4 alpha to DNA; HNF4a-FITC DNA binding, fluorescence polarization, 1 h; activity change, % at 10 µM; actives 0.3% (n = 360,000); AID 1224865; in the data active means activity change above about 30%, passing the limit was not always enough;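 further: controls were the assay level and a saturating level of protein; the project sought stronger binding though the title names inhibitors; some compounds called inactive have numbers as strong as hits; positive values seem to mean higher polarization but the record does not say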
LANA-H2A inh = blocks KSHV LANA binding to histone H2A/H2B. Q9QR71. cell-free LANA-H2A/H2B peptide, fluorescence polarization. actives 0.6% (n = 320,000). inhibition, % (concentration not given with the values); in the data active means inhibition mostly above about 10%, no sharp cut-off; inactive means mostly below about 6.7%;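 further: stock transfer was 7.5 nL into about 10 µL; 0% = median of vehicle wells and 100% = median of positive control wells; one replicate is shown; the record names a cut of 25% in any replicate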
ALR H2O2 inh = blocks human ALR sulfhydryl oxidase activity; P55789; purified ALR, DTT oxidation, H2O2 HRP-luminol luminescence; inhibition, % (concentration not given with the values); actives 3.8% (n = 290,000); AID 485317;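 active means mean and each replicate at 75% or more; inconclusive means only one of the two met; inactive means neither met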;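 further: stock transfer was 7.5 nL into about 7.5 µL; 0% = neutral wells and 100% = wells with inactivated enzyme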
Target sequence (P55789 whole entry, looked up): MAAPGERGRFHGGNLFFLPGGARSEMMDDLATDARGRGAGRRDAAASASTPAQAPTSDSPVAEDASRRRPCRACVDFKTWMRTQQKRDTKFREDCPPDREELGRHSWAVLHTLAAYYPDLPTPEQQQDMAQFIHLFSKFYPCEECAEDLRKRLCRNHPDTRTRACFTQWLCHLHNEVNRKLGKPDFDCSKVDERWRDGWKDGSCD
* hit, by the source's call; u = inconclusive; x = no result given; + = active, no number.

Below each SMILES – Calb FLC	Vif A3G	RanGTP-Imp inh	Beta2AR agonist	HNF4A DNA FP	LANA-H2A inh	ALR H2O2 inh
O=C(NCc1ccccc1)c1csc(-c2cccnc2)n1
→ -6.5	-6.1%	-0.7	-11.7	2.8	-0.3	8.0
O=C(CC1S/C(=N\S(=O)(=O)c2ccc(F)cc2)N(c2ccccc2)C1=O)Nc1ccccc1 (centres undefined)
→ -3.2	6.6%	-0.1	-7.5	-0.7	-4.2	-13.5
COc1cccc(N(C(=O)c2ccco2)C(C(=O)NC2CCCC2)c2ccc(N(C)C)cc2)c1 (centres undefined)
→ 0.4	-6.4%	u	-2.4	-1.4	-4.6	x
CC1(OC(=O)c2ccco2)C(=O)C=C2C=C(C3CC3)OC=C2C1=O (centres undefined)
→ 16.8	x	-9.4	-0.2	-3.5	4.6	-4.6
O=C(NC(=S)Nc1ccccc1N1CCCC1)c1ccccc1[N+](=O)[O-]
→ 0.6	u	0.4	6.6	1.3	2.9	98.0*
Cc1ccc(C(=O)Nc2ccc(C)c(S(=O)(=O)N3CCOCC3)c2)c(C)c1
→ -0.7	0.0%	u	6.7	4.5	6.2	-2.6
N#Cc1cc2c(nc1SCC(N)=O)CCCCC2
→ -16.5	-2.9%	4.7	2.8	1.7	0.0	-17.2
Cc1cc(C)cc(CN2C(=O)NC3(CCCCCC3)C2=O)c1
→ -32.2	3.6%	3.3	-1.5	1.4	-3.6	9.3
Cc1ccc(Cn2nc(C)c(C(=O)NCC(c3ccc(F)cc3)N3CCOCC3)c2Cl)cc1 (centres undefined)
→ x	6.1%	x	0.5	-2.1	2.2	x
Cc1ccc(C(=O)N/C(=C\c2cn(C)c3ccccc23)C(=O)N2CCOCC2)cc1
→ -1.8	x	-2.2	-2.5	1.8	0.1	-3.4
Cc1cc(N2CCN(c3ncccn3)CC2)nc2c(C)cccc12
→ -0.1	-12.0%	-0.6	5.5	-1.1	0.3	-3.6
COC(=O)c1ccc2c(=O)n(NC(=O)C(c3ccccc3)c3ccccc3)c(=S)[nH]c2c1
→ -5.0	1.8%	0.8	8.4	-2.7	3.2	6.1
CC(C)CN(CC(C)C)S(=O)(=O)N1CCC(C(=O)NCc2cccnc2)CC1
→ 17.3	x	-1.3	-0.4	0.6	2.4	-5.0
O=C(c1cc(-c2ccccc2)on1)N1CCN(C(=O)c2ccco2)CC1
→ 18.4	2.2%	2.0	-6.5	-0.7	3.1	-0.6
CCOC(=O)N1CCC(NC(=O)c2cc(C(=O)Nc3ccc(S(=O)(=O)N4CCOCC4)cc3)ccc2CO)CC1
→ 1.6	x	u	7.3	-2.1	16.9*	1.0
N#Cc1ccccc1COc1ccc(/C=C/C(=O)O)cc1
→ -3.8	x	-4.8	2.2	4.1	0.3	-10.3
COc1ccc(-c2csc(N3CCC(C(N)=O)CC3)n2)cc1
→ x	x	x	-3.1	0.2	-5.9	16.3
COc1ccc(OC)c(/C=N/NC(=O)c2cc[n+](CC(=O)c3ccccc3)cc2)c1
→ 7.4	29.9%	2.2	-8.4	3.5	-0.6	-9.8
COc1ccc(C(=O)N(Cc2ccccc2)c2cccc(C)c2)cc1S(=O)(=O)N1CCOCC1
→ -2.1	7.9%	-1.8	9.9	-1.3	-0.4	-4.0
COc1ccc(-c2cc3ccc(OC(C)C(=O)O)cc3oc2=O)cc1 (centres undefined)
→ 2.5	x	9.2	3.5	-0.3	-3.4	-10.8
COc1ccc(C/C(C)=N/NC(=O)c2ccncc2)cc1
→ 2.5	-2.8%	-1.0	-12.5	-9.0	0.0	1.3
c1ccc2nc(NN=C3CCCCC3)ccc2c1
→ x	5.8%	x	2.1	6.9	x	x
Cc1cccc(NC(=O)c2cc(NC(=O)C3CCCCC3C(=O)O)ccc2Cl)n1 (centres undefined)
→ 2.5	3.1%	1.6	7.7	1.7	3.9	12.1
O=C(O)CSCc1c(F)cccc1Cl
→ 1.2	69.4%	1.6	2.7	0.4	-0.8	0.9
CN(C(=O)CSc1nnc(Cc2cccc3ccccc23)n1N)C1CCS(=O)(=O)C1 (centres undefined)
→ x	24.1%	x	-7.8	0.1	6.2	-1.3
COc1ccc(NC(=O)c2ccc(N3C(=O)C4CC=C(C)CC4C3=O)cc2)c(OC)c1 (centres undefined)
→ 0.3	3.0%	-1.3	8.8	-1.5	-3.6	-19.2
O=C(CCc1ccccc1)NNC(=O)Nc1ccc(F)c(Cl)c1
→ -0.3	-5.6%	2.4	-3.4	-0.8	6.9	-1.7
CCc1cc(C(=O)N2CCN(S(=O)(=O)c3ccccc3F)CC2)sc1C
→ x	-1.1%	x	7.3	0.0	+	-2.1
CCOC(=O)C1=C(C)NC(=S)NC1C (centres undefined)
→ -3.4	-4.9%	-3.5	-2.2	-3.1	5.3	5.8
CCc1c(C)nc(SCC(=O)N2C(C)CCCC2C)[nH]c1=O (centres undefined)
→ -26.9	6.9%	0.5	-5.1	-1.5	-2.0	-2.1
COc1ccc(O)c(-c2nc(N)nc(N)n2)c1
→ x	x	x	-1.9	1.7	-0.9	1.9
Cc1cccc2nc(=S)n(C(=O)c3ccco3)n12
→ -16.9	-6.9%	6.5	-20.6	0.1	4.3	-6.1
Cc1sc(NC(=O)c2oc3ccccc3c2C)c(C#N)c1C
→ -1.0	0.6%	25.2*	13.7	2.6	-0.6	43.2
CCOC(=O)C1C(c2cccs2)NC(=O)N(C)C1(O)C(F)(F)F (centres undefined)
→ 2.8	-5.6%	u	-8.0	-1.5	-1.8	3.1
CC(C)CN1C(=O)N(c2ccc(Cl)cc2)C(C)(O)CC1(C)C (centres undefined)
→ -5.7	-8.9%	4.8	-15.1	-3.5	-6.2	-16.8
CCc1c(C)c2c(C)nn(-c3ccccc3)c2[nH]c1=O
→ 64.5	-1.1%	1.9	-11.6	3.6	3.4	-2.0
CCOC(=O)CN1CC23C=CC(O2)C(C(=O)NCc2cccs2)C3C1=O (centres undefined)
→ -15.1	0.0%	2.8	-0.8	-0.6	0.8	-1.4
CCN(CC)CCN(CC)Cc1ccccc1Br
→ -2.0	14.5%	-5.8	3.6	2.4	-2.8	-1.6
COc1ccc([N+](=O)[O-])cc1NC(=O)N(C)Cc1ccco1
→ x	-12.7%	u	-15.3	2.4	0.3	-46.5
Cc1cccn2c(=O)c(/C=N/O)c(N3CCOCC3)nc12
→ 30.1	2.4%	0.8	-2.8	8.6	5.7	-2.3

A portion of the results above, as a working copy:
Below each SMILES – Calb FLC	Vif A3G	RanGTP-Imp inh	Beta2AR agonist	HNF4A DNA FP	LANA-H2A inh	ALR H2O2 inh
COc1ccc(C/C(C)=N/NC(=O)c2ccncc2)cc1
→ 2.5	-2.8%	-1.0	-12.5	-9.0	0.0	1.3
c1ccc2nc(NN=C3CCCCC3)ccc2c1
→ x	5.8%	x	2.1	6.9	x	x

Further results:
Below each SMILES – Calb FLC	Vif A3G	RanGTP-Imp inh	Beta2AR agonist	HNF4A DNA FP	LANA-H2A inh	ALR H2O2 inh
CSc1ccccc1NC(=O)CSc1nnc(CNC(=O)c2ccccc2F)n1C
→ 11.5	x	0.7	-13.0	-0.2	1.9	-1.7
COc1cccc(N2CCN(CC(=O)Nc3ccc(SC(F)F)cc3)CC2)c1
→ -13.3	x	-2.0	-4.5	-1.7	-2.9	-14.1
O=C(CN1C(=O)COc2ccccc21)NCCCN1CCOCC1
→ 0.4	x	0.4	-10.1	3.1	-4.3	-4.9
Cc1ccc(NC(=O)CC2SC(=NCC3CCCO3)NC2=O)cc1Cl (centres undefined)
→ -12.2	x	-1.8	0.3	0.7	0.7	7.0
COc1cc(-c2nnc3n2N=C(c2ccccc2)CS3)cc(OC)c1OC
→ -7.9	-0.8%	u	-5.0	0.8	-1.4	1.8
CC(C)N(CCCNC(=O)C1CCC(CNS(=O)(=O)c2ccccc2)CC1)Cc1ccccc1 (centres undefined)
→ 4.0	x	7.4	-1.6	4.4	-5.3	0.8
CCCCc1ccc(NC(=O)C(C)CC)cc1 (centres undefined)
→ -14.3	6.1%	5.5	1.5	1.1	3.6	-3.0
CC(C)COc1ccc(C(=O)OC2CC(C)(C)OCC2CN(C)C)cc1 (centres undefined)
→ 21.3	14.4%	-3.5	11.6	-3.4	x	x
Cc1ccccc1CNC(=O)C(=O)NCC1CCCN1S(=O)(=O)c1ccccc1 (centres undefined)
→ 0.6	-3.0%	u	1.0	2.2	-4.8	0.6
C=CCn1c(COc2ccc(OC)cc2)nnc1SCn1nnc2ccccc2c1=O
→ -0.1	x	-0.4	-4.5	5.0	6.4	-12.6
CC(C)OC(=O)/C(=C\C=C\c1ccccc1)NC(=O)c1ccccc1
→ -10.1	73.0%	-1.8	5.5	-5.1	5.2	-12.4
O=C(O)c1ccc(Oc2nc3ccccc3s2)cc1
→ x	-2.0%	x	-4.4	-1.0	x	x
CC1(C)OC(c2ccccc2)=C/C(=C\C=N\NC(=O)c2ccncc2)O1
→ -10.0	8.0%	1.2	6.4	2.4	2.4	30.9
O=C1/C(=C/c2cccnc2)SC(=S)N1CCc1ccccc1
→ 23.9	-4.6%	0.6	-6.9	-0.7	4.8	-8.2
NS(=O)(=O)OCC(Cc1ccccc1)N1C(=O)c2ccccc2C1=O (centres undefined)
→ -2.4	x	1.3	-3.0	6.3	-1.8	4.1
COc1ccc(N2CCN(C(=O)C3CCCN(S(=O)(=O)c4ccc(C)cc4)C3)CC2)cc1 (centres undefined)
→ 7.9	x	7.4	-4.2	1.5	25.7*	x
O=C(CSc1nc2nccnc2c(=O)n1Cc1cccs1)Nc1ccccc1F
→ -8.6	x	2.0	-8.0	-1.0	-5.5	98.7*
Cc1cc(C)cc(NC(=S)NC(=O)Cc2ccccc2)c1
→ -12.5	x	1.5	2.0	5.8	-3.0	-4.1
Cc1ccc(C)c(S(=O)(=O)NCC(=O)NCc2ccco2)c1
→ 22.5	4.2%	-1.0	-1.0	2.8	-6.6	-3.2
O=[N+]([O-])c1ccccc1/C=N/NC1=NS(=O)(=O)c2ccccc21
→ u	-3.9%	4.8	-1.0	9.5	2.1	9.5
Cc1ccc(N(C)S(=O)(=O)c2cccc(C(=O)Nc3nnc(C4CC4)s3)c2)cc1
→ 4.4	8.5%	6.3	-2.3	5.1	-2.4	95.0*
COc1ccc(NC(=O)c2cc(C)nc3ccccc23)c(OC)c1
→ 12.2	5.5%	-1.3	-0.4	0.2	-0.2	-1.2
COc1ccc(C2C(=O)c3ccccc3C2=O)c(OC)c1
→ 1.1	u	-3.3	-0.4	3.5	-7.0	-10.0
CCn1c(SCC(=O)NCCc2ccccc2)nc2c([nH]c3ccccc32)c1=O
→ x	-9.5%	x	-17.7	-0.4	2.7	-4.8
